Screening results from PubChem BioAssay.
Vif A3G: inhibitors of Vif binding to APOBEC3G peptide, primary screen, biochemical, TR-FRET, GST-Vif 1-94, biotin-A3G peptide, dose response retest (AID 1117319). Virion infectivity factor (Human immunodeficiency virus type 1 group M subtype B (isolate …. TR-FRET GST-Vif / biotin-A3G peptide binding; higher % means a stronger effect; test concentration not given here; strong numbers were not always called active. 0.57% of 260,000 active. inhibition, %, or IC50 in µM where a hit was titrated;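 active means above the screen mean plus three standard deviations and confirmed in dose response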;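 further: Vif residues 1-94 fused to GST binding biotinylated APOBEC3G peptide 110-148; 0% = full assay without inhibitor and 100% = GST in place of GST-Vif; retest series ran down from 100 µM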
MLL AF4-AF9 inh: inhibitors of AF4 peptide binding to AF9, primary screen, biochemical, AlphaScreen, biotin-AF4 peptide, FLAG-AF9, single point; Protein AF-9 (Homo sapiens), P42568; 0.47% of 350,000 active; inhibition, % at 10 µM;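 active means every replicate reaching a set inhibition limit, whatever the replicate mean, cut at about 25% in these data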;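 further: 0% = plate neutral control median and 100% = total signal loss; the record names both 10 and 1 µM as test concentration; the first replicate is given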
Target sequence (P42568 whole entry, looked up): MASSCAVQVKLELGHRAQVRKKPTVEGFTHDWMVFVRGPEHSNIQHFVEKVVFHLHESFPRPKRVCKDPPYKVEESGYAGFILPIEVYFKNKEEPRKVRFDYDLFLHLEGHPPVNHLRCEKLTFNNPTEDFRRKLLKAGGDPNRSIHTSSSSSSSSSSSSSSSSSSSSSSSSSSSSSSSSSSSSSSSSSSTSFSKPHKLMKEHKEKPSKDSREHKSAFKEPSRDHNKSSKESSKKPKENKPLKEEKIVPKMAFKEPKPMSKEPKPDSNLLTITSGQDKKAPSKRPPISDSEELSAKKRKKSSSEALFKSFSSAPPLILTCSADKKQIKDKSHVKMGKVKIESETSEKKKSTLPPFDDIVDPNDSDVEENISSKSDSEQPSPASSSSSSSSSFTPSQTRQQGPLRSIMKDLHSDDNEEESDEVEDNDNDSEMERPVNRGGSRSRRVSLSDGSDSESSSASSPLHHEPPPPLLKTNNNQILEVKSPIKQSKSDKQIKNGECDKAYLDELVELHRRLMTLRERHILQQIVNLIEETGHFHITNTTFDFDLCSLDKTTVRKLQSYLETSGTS
* marks the source's active call; other numbers are inactive results; & = joins results of further samples. The list is partial, so the mix of outcomes need not match the whole.

SMILES | Vif A3G | MLL AF4-AF9 inh
Cc1c(C)[n+](=O)c(C)c(C)n1[O-] | -3.2% | -0.6
O=C(CN1CCN(S(=O)(=O)c2ccc(F)c(F)c2)CC1)Nc1ccccc1C(=O)NC1CC1 | -4.7% | 0.7
CCN(CC(=O)NCc1cccs1)C(=O)c1ccc(S(=O)(=O)Nc2ccccc2OC)cc1 | -1.9% | 0.0
Cc1cccc(C)c1-n1nnnc1SCC(=O)N1CCNC1=O | 7.5% | -16.1
O=C(/C=C/c1ccc(F)cc1)Nc1cc(S(=O)(=O)N2CCOCC2)ccc1N1CCOCC1 | -2.3% | -3.0
C[C@@H]1CN([C@H](C)CO)S(=O)(=O)c2ccc(-c3cccc(C#N)c3)cc2O[C@H]1CN(C)C(=O)Nc1cc(F)ccc1F | -4.4% | -1.6&0.3&-0.3
CCOC(=O)C1=C(C#N)C(C(=O)OCC)c2ncccc21 (centres undefined) | -5.4% | -0.9
CC(=NNc1nc2ccccc2o1)c1ncccn1 | 1.9% | 13.2
CC(C)CC1NC(=O)N(CC(=O)NC2CCCCC2)C1=O (centres undefined) | -3.4% | -0.4
COc1ccc(CC(=O)Nc2cc(S(=O)(=O)N3CCOCC3)ccc2N2CCCC2)cc1 | 1.5% | -3.3
CC1=C(C(=O)Nc2cc(C(=O)N3CCN(c4ccc(Cl)cc4)CC3)ccc2C)SCCO1 | 14.3% | -46.3
COc1cccc(S(=O)(=O)N(C)C[C@H]2Oc3ncc(Br)cc3C(=O)N([C@H](C)CO)C[C@H]2C)c1 | -1.5% | -5.0&1.2
CC(C)(C)C1CCC(CN2CCC(CN3C(=O)C(=O)NC[C@@H]3Cc3ccccc3)CC2)CC1 (some centres undefined) | -1.4% | 1.3
CC(C)C[C@H]1CN([C@@H](Cc2ccc(O)cc2)CN2CCC[C@@H]2CN2C(=O)C(=O)NC[C@@H]2Cc2ccccc2)C(=O)C(=O)N1CC1CCCCCC1 | -0.4% | -0.5
Cc1ccc2c(O)c(Cc3ccccc3)c(=O)[nH]c2n1 | -2.1% | 0.1
O=C(CCN1CCN(c2ccccc2)CC1)NNC(=O)Cc1c(F)cccc1Cl | 0.3% | -9.6
Cc1noc(C)c1NC(=O)N(C)C[C@@H]1Oc2ncc(Br)cc2C(=O)N([C@@H](C)CO)C[C@@H]1C | -2.8% | 0.4&-6.1
CC1=NN(c2ccccc2)C(c2ccco2)C1 (centres undefined) | -0.9% | 0.2
Cc1ccc(NCC(=O)N2CCN(S(=O)(=O)c3ccccc3)CC2)cc1F | -1.6% | 2.2
O=C(C(=NNc1ccccc1)c1ccccc1)c1ccccc1 | -6.1% | -2.5
O=C1[C@H](Oc2ccccc2)[C@@H](c2ccccc2)N1c1ccncc1 | -4.6% | -0.2
COc1cccc(CNCc2cccc(OC)c2O)c1O | -8.4% | 0.1
Cc1cc(C)cc(NC(=O)C2COc3ccccc3O2)c1 (centres undefined) | -4.7% | 4.0
CC(=O)Nc1cc(NC(C)=O)cc(C(=O)NCC2(N3CCOCC3)CCCCC2)c1 | 19.3% | -0.5
COc1cc(C(=O)C(=O)c2ccc(OC)c(OC)c2)ccc1O | -4.5% | -2.4

The listing continues:
SMILES | Vif A3G | MLL AF4-AF9 inh
Cc1ccc(-c2nnn(CC(=O)NC(=O)NC3CCCCC3)n2)cc1 | 3.8% | 0.2
Nc1ccc2c(c1)[nH]c(=O)c1cc(N)ccc12 | 10.0% | 2.7
Clc1ccc(CSc2ncnc3c2ncn3C2CCCCO2)cc1 (centres undefined) | -7.2% | -4.0
O=C(CNc1ccccc1N1CCCC1=O)Nc1cc(C(F)(F)F)ccc1-n1cncn1 | 3.3% | 0.3
CC/C(=C\c1ccc(Cl)cc1)c1ccncc1 | -6.5% | -0.1
CSc1ccccc1NC(=O)COC(=O)CCCOc1ccc(C)cc1 | -7.1% | -2.1
COc1cccc(-c2cnc3c(c2)C(=O)N([C@H](C)CO)C[C@@H](C)[C@H](CN(C)C(=O)Nc2ccccc2F)O3)c1 | 6.9% | -0.8&-4.0&-0.3
Cc1ccn2c(CC(C)(C)C)c(-c3ccc(F)cc3)nc2c1 | -0.8% | 1.6
O=C1NC[C@H](Cc2ccccc2)N(C[C@H]2CCCN2C[C@H](Cc2ccccc2)N2C[C@H](Cc3ccccc3)N(CCc3ccccc3)C(=O)C2=O)C1=O | 4.9% | 1.4
CN(CCc1ccccc1)C(=O)c1ccc(NC(=O)Cc2ccc(NC(=O)C3CCN(C(=O)C4CCCCC4)CC3)cc2)cc1 | -1.0% | 26.6*
COc1ccc(/C=C/C(=O)N(CCC(N)=O)c2ccccc2)cc1S(=O)(=O)N1CCOCC1 | -0.5% | -3.5
CCc1ccccc1NC(=O)CNC(=O)c1cc(C2CC2)nn1-c1ccccc1 | 23.6% | 0.0
Cn1c(CC(=O)NNC(=O)c2ccccc2[N+](=O)[O-])nc2ccccc21 | 0.3% | 0.8
Cc1ccc(C)[n+](CC(=O)N2CCCCC2)c1 | 12.7% | 0.1
COc1cccc(C#CC2=CC(=O)C[C@H](c3ccc(F)cc3)C2)c1 | -6.5% | -3.0
CCC(=O)OC1(C(C)=O)CCC2C3CCC4=CC(=O)CCC4(C)C3CCC21C (centres undefined) | -2.1% | 0.0
N#CCc1ccnc2ccccc12 | -8.0% | -0.6
CC(C)c1ccc(C=NNc2ccc([N+](=O)[O-])cn2)cc1 | -4.1% | 3.3
Cn1cnc([N+](=O)[O-])c1S(=O)(=O)Oc1cccc2ccccc12 | 11.4% | 2.2
CCOC(=O)CC1COCCN1C(=O)c1cc(COc2ccccc2SC)on1 (centres undefined) | 2.9% | -2.0
S=c1nn[nH]c2ccccc12 | 12.3% | -51.2
CCOC(=O)/C=c1/s/c(=C/c2ccc3cc(OC)ccc3c2)c(=O)n1CC(=O)NCc1ccc2c(c1)OCO2 | -6.1% | -0.9
C[C@H]1CN([C@@H](C)CO)C(=O)c2cc(-c3cccc(C#N)c3)cnc2O[C@H]1CN(C)C(=O)c1ccccn1 | 4.2% | -2.5&-5.0&-5.0
O=C(O)c1ccc(CSCc2ccccc2)o1 | -4.2% | -0.1
CCCCn1c(N)c(N(CC(C)C)C(=O)c2cc3ccccc3cc2OC)c(=O)[nH]c1=O | -8.0% | 1.8

Carrying on.
SMILES | Vif A3G | MLL AF4-AF9 inh
C=CCOc1ccc(/C=C/C(=O)N2CCCN(S(=O)(=O)c3c(C)noc3C)CC2)cc1 | 4.0% | -1.0
CC(CC(=O)c1ccccc1)=NCCCN=C(C)CC(=O)c1ccccc1 | 4.0% | 0.5
O=C(NCCc1ccccc1)c1c[nH]c2ccccc2c1=O | 1.1% | -1.3
CC1(O)CC(C)(C)C(C#N)C(=O)N1 (centres undefined) | -10.9% | -3.0
C[C@H]1CN([C@@H](C)CO)C(=O)CCCn2nncc2CO[C@@H]1CN(C)C(=O)Cc1ccccc1 | -4.5% | -3.5&-0.9
CC(Sc1nnc2n1CCCCC2)C(=O)Nc1ccc(S(N)(=O)=O)cc1 (centres undefined) | -3.7% | -2.1
CC1=CC2(C)C(C3C(C)=CC2(C)C(=O)C3(C)O)C(C)(O)C1=O (centres undefined) | -6.2% | -2.0
CC1C(c2ccccc2)OCCN1C(=S)Nc1ccc(S(=O)(=O)N2CCCCC2)cc1 (centres undefined) | 4.5% | -4.0
NC(=O)CCC(NC(=O)c1ccc(Cl)cc1)C(=O)NCCc1ccc2c(c1)OCCO2 (centres undefined) | -7.5% | -0.3
Cc1cccc(Nc2nnc(SCC(O)=C(C#N)c3nc4ccccc4[nH]3)s2)c1 | 3.4% | -0.6
CC(Sc1nnc(-c2ccco2)n1N)C(=O)NCc1ccc2c(c1)OCO2 (centres undefined) | 4.5% | -3.2
O=C(NOCc1ccccc1)c1coc(-c2ccccc2)n1 | 8.5% | -1.3
C[C@@H]1CN([C@H](C)CO)C(=O)c2c(c3ccccc3n2C)-c2ccccc2CO[C@H]1CN(C)C(=O)c1cc(Cl)cc(Cl)c1 | -1.7% | -1.0&5.1
O=C(Cc1cccc(NC(=O)C2CCN(C(=O)C3CC3)CC2)c1)Nc1cccc(C(=O)N2CCOCC2)c1 | -2.1% | -3.5
COc1cc(O)c(C=NN2C(=O)CSC2=S)c(OC)c1 | -39.4% | -0.2
Cc1ccc(C)c(OCC(=O)N/N=C/c2ccc(N3CCOCC3)cc2)c1 | -0.6% | 2.2
COc1cc(NC(=O)c2ccccc2)c(OC)cc1NC(=O)CN1C(=O)N(C)C2(CCCCC2)C1=O | 3.1% | 5.0
C[C@H](CO)NC(=O)c1[nH]cnc1C(=O)Nc1cccc(Cl)c1 | -2.9% | 0.3
Cc1cccc(NC(=O)CN(CC2CCCO2)C(=O)c2ccc(S(C)(=O)=O)cc2)c1C (centres undefined) | 7.4% | 4.5
CC(=O)CCc1ccc(OCC(=O)Nc2cccc(S(=O)(=O)N(C)c3ccccc3)c2)cc1 | 9.0% | -3.8
Cc1cccc(NC(=O)C(=O)NCC2CCCN2S(=O)(=O)c2cccs2)c1 (centres undefined) | 1.8% | -0.8
COc1ccc(CCNC(=O)C(=O)c2cn(CC(=O)N3CCCC3)c3ccccc23)cc1OC | -0.8% | -0.9
CCN(C(C)=O)c1cnc(C=NNC(N)=S)c2ccccc12 | 3.8% | -6.2
O=c1c2ccccc2nnn1-c1ccccc1 | -0.3% | -1.6
Cc1ccc(C(=O)NNC(=O)COC(=O)COc2ccccc2C#N)cc1 | 12.2% | -2.2

Next section; the last 2 above are carried over.
SMILES | Vif A3G | MLL AF4-AF9 inh
O=c1c2ccccc2nnn1-c1ccccc1 | -0.3% | -1.6
Cc1ccc(C(=O)NNC(=O)COC(=O)COc2ccccc2C#N)cc1 | 12.2% | -2.2
COc1cccc2c1OC1(N3CCOCC3)CCCCC1C2C[N+](=O)[O-] (centres undefined) | 0.2% | -4.5
CSc1nc(N)c(C(=O)N(c2ccccc2)c2ccccc2)s1 | -1.9% | 1.7
CCOc1ccc(NC(=O)c2cccc(NC(C)=O)c2)cc1S(=O)(=O)N1CCCC1 | -1.7% | -0.6
COc1ccc(C(=O)CC(C(=O)O)c2ccc3c(c2)OCO3)cc1OC (centres undefined) | -5.5% | -3.7
C=CCNC(=S)N1CCC2CC1c1c(Cl)cccc12 (centres undefined) | -4.6% | -2.6
CC(C)CN1C(=O)C(=O)N(CC(=O)NCCCc2ccccc2)C1=O | -1.0% | -2.8
COc1ccccc1C=NN=C1c2ccccc2-c2ccccc21 | -3.5% | 0.6
O=C(COC(=O)CC1CCCC1)Nc1ccc(Cl)cc1 | -0.8% | -2.1
COC(=O)CCC(C)C1CCC2C3C(OC(C)=O)CC4CC(O)CCC4(C)C3CC(O)C12C (centres undefined) | -2.1% | -0.4
O=C(Nc1cccc(-c2ccc(N3CCOCC3)nn2)c1)c1cccc(Cl)c1 | 1.7% | -4.4
O=C(O)CCCN1C(=O)C2C3CCC(C3)C2C1=O (centres undefined) | 6.8% | -2.3
C[C@H]1CN([C@@H](C)CO)C(=O)c2cc(C3=CCCCC3)cnc2O[C@@H]1CN(C)C(=O)Cc1ccccc1 | 15.7% | 2.7&-9.4&0.7
O=C1CCC(=O)c2ccc3c4c(ccc1c24)CC3 | 3.8% | -16.3
COc1ccccc1C=NN1C(=O)CSC1=S | -6.0% | -1.4
CN(C)C(=O)CCc1ccc2c3c([nH]c2c1)[C@]1(CCc2ccccc2)[C@@H](C(=O)N2CCCCC2)C[C@H](CC(=O)NCCCn2ccnc2)C(=O)N1CC3 | -3.4% | 3.7
O=C1OCc2ccc([N+](=O)[O-])cc21 | -6.0% | 4.2
CC(=O)Nc1ccc2c(c1)Cc1c-2cc(Br)c(N)c1Br | -5.2% | -2.6
CC1CCC2(CC1)NC(=O)N(NC(=O)c1ccc(OC(C)C)cc1)C2=O (centres undefined) | -3.5% | -1.0
CCN(C(=O)CN1C(=O)S/C(=C\c2ccccc2Cl)C1=O)C1CCS(=O)(=O)C1 (centres undefined) | 4.7% | 2.3
CCOc1ccc(C(=O)COC(=O)Cn2[nH]c(=O)c3ccccc3c2=O)cc1 | 2.4% | -2.4
Nc1c(CNCc2nnn(Cc3ccccc3)c2N)nnn1Cc1ccccc1 | -4.6% | -3.0
N#CC(=C(O)CN1CCN(c2ccccc2F)CC1)c1nc(-c2ccc(Cl)cc2)cs1 | -1.9% | -1.8
CC(=O)c1cc(Cl)ccc1OCC(=O)NC1CCCC1 | 3.6% | 9.0
CCOC(=O)C(Cc1ccc(O)c([N+](=O)[O-])c1)N1C(=O)c2ccccc2C1=O (centres undefined) | 3.9% | -14.5
CC(C)C[C@H]1COc2cc(Br)ccc2S(=O)(=O)N1 | 0.5% | -0.9
CCN1C(=O)[C@H]2[C@H]3CN=C(SCc4ccc(C(=O)OC)cc4)N3[C@@](CC)(C(=O)OC)[C@H]2C1=O | 2.2% | 0.7

Complete entries as entered above:
Listed for Cc1ccn2c(CC(C)(C)C)c(-c3ccc(F)cc3)nc2c1 = Vif A3G: -0.8%; MLL AF4-AF9 inh: 1.6
Listed for O=C(CN1CCN(S(=O)(=O)c2ccc(F)c(F)c2)CC1)Nc1ccccc1C(=O)NC1CC1 = Vif A3G: -4.7%; MLL AF4-AF9 inh: 0.7
Listed for CCc1ccccc1NC(=O)CNC(=O)c1cc(C2CC2)nn1-c1ccccc1 = Vif A3G: 23.6%; MLL AF4-AF9 inh: 0.0

Two consecutive entries already listed:
SMILES | Vif A3G | MLL AF4-AF9 inh
Cc1c(C)[n+](=O)c(C)c(C)n1[O-] | -3.2% | -0.6
O=C(CN1CCN(S(=O)(=O)c2ccc(F)c(F)c2)CC1)Nc1ccccc1C(=O)NC1CC1 | -4.7% | 0.7
